D2 PAM = human D2 receptor positive allosteric modulation; P14416; DiscoveRx D2 beta-arrestin cells, luminescence, 90 min; 100% = 57 uM dopamine signal; potentiation, % (concentration not given with the values); 360,000 compounds, 0.23% hits; active = potentiation of 50% or more; inconclusive = 30% to 50%; inactive = 30% or less;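 further: tested on top of an EC20 dose of dopamine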
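PathHunter beta-arrestin assay in DiscoveRx D2 cells. Compounds were added with an EC20 of dopamine (50 nM final) for 90 min at 37 deg C. Luminescence was read 1 h after detection reagent, with 57 uM dopamine as the EC100 control.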
TRPML1 inh = blocks the human TRPML1 channel. TRPML1-inducible cells, Ca2+ dye fluorescence, FDSS; stronger effect = lower value; inhibition of EC80 agonist-evoked calcium signal. Q9GZU1. 390,000 compounds, 0.02% hits. activity change, negative = inhibition, % (test concentration not listed). AID 624415; in the data active means activity change below about -50%; inconclusive means about -30% to -50%; inactive means above about -30%;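 further: stimulus is agonist 54-4 at its EC80 concentration; on the % scale 0 is the no-effect control and ±100 the full control effect; compound concentration not given in the record; the text of the record puts the active cut at -80%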
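TRPML1-DL cells, Tet-induced overnight (~16 h, 37 °C) at 1,500 cells/well, were loaded with Ca8 no-wash dye plus quencher for 45-90 min at room temperature. Compounds were pinned during FDSS kinetic reading; agonist 54-4 at EC80 (4 uM final) then added.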
PINK1 modulator = PINK1 expression modulation | PINK1 immunofluorescence, high-content cytometry, 24 h | 410,000 compounds, 0.2% hits | Potency, µM (titrated, usually from 76.6 µM), for the others: at the top dose activation (PINK1 increase), usual class: activators | AID 624263; active = well fitted activation curve with a large enough effect; inconclusive = small, poorly fitted or top-dose-only effect; inactive = flat fitted curve, though single readings scatter; cell line not stated here;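 further: potency means the concentration at half of the fitted maximal effect; % of control where 0% means no effect; nearly all actives have a fitted effect of over 65% in size; a mitochondrial uncoupler was the plate control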
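Measures PINK1 amount and localization on or inside mitochondria by immunofluorescence. Stable cells get compounds at 5 concentrations for 24 hours before fixation and staining; CCCP controls included.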
D2 ag = human D2 receptor agonism in beta-arrestin assay; P14416; DiscoveRx PathHunter D2 beta-arrestin, luminescence, 90 min; 100% = 57 uM dopamine signal; activation, % (test concentration not listed); 360,000 compounds, 0.084% hits; in the data active = activation above about 40%; inconclusive = about 15% to 40%; inactive = below about 15%; further: compound concentration not given in the record; the text of the record calls up to 30% inactive
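DiscoveRx PathHunter D2 beta-arrestin cells (2,100/well) attached overnight, then compound-stimulated 90 min at 37 C in HBSS/10 mM HEPES/0.1% Tween-20 buffer; beta-galactosidase complementation read by luminescence after 1 h at ambient temperature. Dopamine 57 uM final (EC100) as control.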
TRPML1 ag = activates the human TRPML1 channel; activation, % (concentration not given with the values); TRPML1-expressing cells, Ca2+ dye fluorescence, FDSS; host cell line not named in the record; reference of the full effect not given here; 410,000 compounds, 0.12% hits; Q9GZU1; AID 624414; in the data active = activation above about 50%; inconclusive = about 30% to 50%; inactive = below about 30%; further: 0% is about no effect; the text of the record puts the active cut at 80%
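Calcium fluorescence on an FDSS kinetic reader gave the read-out. Tet-induced TRPML1-DL cells were plated overnight, dye-loaded (Ca8 with quencher, 45-90 min, room temperature, dark), then read 110 s after compound addition, and again 110 s after 4uM final 54-4 (EC80).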
Six1-Eya2 blk = blocks human Six1 binding to Eya2. Q15475+O00167. AlphaScreen GST-Six1/His-Eya2 binding, biochemical; stronger effect = lower value; control for the full effect not named in the record. activity change, % (concentration not given with the values). 360,000 compounds, 0.56% hits; in the data active = activity change below about -65%; inconclusive = about -30% to -65%; inactive = above about -30%; further: on the % scale 0 is the no-effect control and ±100 the full control effect
Target sequence (O00167 whole entry, looked up): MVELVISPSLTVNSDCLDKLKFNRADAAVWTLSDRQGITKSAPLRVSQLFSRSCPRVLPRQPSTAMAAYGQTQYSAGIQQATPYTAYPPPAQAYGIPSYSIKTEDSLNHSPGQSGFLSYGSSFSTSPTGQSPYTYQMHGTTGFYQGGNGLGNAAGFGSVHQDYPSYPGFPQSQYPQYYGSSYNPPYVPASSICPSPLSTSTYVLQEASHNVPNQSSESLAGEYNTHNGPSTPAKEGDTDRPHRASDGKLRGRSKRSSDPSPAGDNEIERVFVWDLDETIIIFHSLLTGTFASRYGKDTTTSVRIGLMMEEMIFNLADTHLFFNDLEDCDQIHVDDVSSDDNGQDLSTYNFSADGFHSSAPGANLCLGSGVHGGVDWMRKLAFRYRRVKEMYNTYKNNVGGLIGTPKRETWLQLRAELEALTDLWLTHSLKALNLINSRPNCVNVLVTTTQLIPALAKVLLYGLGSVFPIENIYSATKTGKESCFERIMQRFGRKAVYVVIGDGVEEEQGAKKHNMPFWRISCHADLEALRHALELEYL
Target sequence (Q15475 whole entry, looked up): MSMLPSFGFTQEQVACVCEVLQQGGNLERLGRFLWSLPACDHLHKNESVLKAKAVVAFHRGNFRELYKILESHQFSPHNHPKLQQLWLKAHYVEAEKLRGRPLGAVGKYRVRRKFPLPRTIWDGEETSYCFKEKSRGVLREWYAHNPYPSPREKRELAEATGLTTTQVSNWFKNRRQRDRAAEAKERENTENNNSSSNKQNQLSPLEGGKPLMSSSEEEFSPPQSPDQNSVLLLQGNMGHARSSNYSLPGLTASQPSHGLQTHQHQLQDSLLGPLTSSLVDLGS
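Homogeneous AlphaScreen proximity assay pairing GST-Six1 with His-tagged Eya2 (added as 5X mix: 250 nM and 500 nM) in 50 mM Tris pH 8.0, 300 mM NaCl, 1 mM TCEP. Glutathione donor and nickel acceptor beads; 1 h, 37 °C, dark.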
Starred values were filed as active, the others as inactive; ? = inconclusive; . = no result given; [ ] = another dose, or the depositor's remark.

item	SMILES	Six1-Eya2 blk	D2 ag	PINK1 modulator	TRPML1 inh	TRPML1 ag	D2 PAM
1	CN(Cc1ccccc1N1CCCC1)C(=O)c1cc2cc(Cl)ccc2o1	-25	-7.5	1.4%	60	2.8	-4
2	CCOc1ccc(NC(=S)N(CCOC)C(C)c2ccco2)cc1 (stereo not given)	-6	-5.7	0.8%	8	-0.8	-11
3	CCN(CC)S(=O)(=O)c1cc(NC(=O)c2cc([N+](=O)[O-])ccc2N2CCOCC2)ccc1C	6	-4.5	-1.1%	9	0.0	-36
4	CCCCn1nc(C(=O)Nc2nc3c(s2)CCCC3)c2ccccc2c1=O	3	-1.1	3.6%	33	-0.3	-7
5	Cn1c(N)c(C(=O)COC(=O)CCCOc2ccc(Cl)cc2Cl)c(=O)n(C)c1=O	0	4.1	0.2%	-9	0.4	0
6	O=C(NCc1cccnc1)c1ccc(Cl)c(S(=O)(=O)N2CCCCCC2)c1	-8	-0.3	0.4%	-6	1.2	-33
7	CC12CCC(C(=O)N(CSC(=S)N/N=C\c3ccccc3)C1=O)C2(C)C (stereo not given)	-3	-0.8	-2.0%	-12	-0.7	-7
8	CCC(CC)C(=O)Nc1ccc(OCc2cc(=O)n3c4c(sc3n2)CCCC4)cc1	.	.	?	-5	-0.7	.
9	Cc1ccc(-c2nc3s/c(=C\c4ccco4)c(=O)n3n2)cc1	-11	-1.0	1.4%[38.3 µM]	13	1.2	-13
10	CCOC(=O)CNc1ccc(C(=O)OCC)cc1[N+](=O)[O-]	-4	1.5	-0.2%	11	-0.1	-15
11	O=C(NCc1cccs1)c1ccccc1F	3	0.1	-0.5%	-8	-0.9	11
12	CCOc1ccc(C(C)(C)C)cc1S(=O)(=O)n1nc(C)cc1C	8	-4.3	-0.7%	-2	0.7	5

Single records, as listed above.
O=C(NCc1cccnc1)c1ccc(Cl)c(S(=O)(=O)N2CCCCCC2)c1 is listed with Six1-Eya2 blk: -8; D2 ag: -0.3; PINK1 modulator: 0.4%; TRPML1 inh: -6; TRPML1 ag: 1.2; D2 PAM: -33
CCOc1ccc(C(C)(C)C)cc1S(=O)(=O)n1nc(C)cc1C is listed with Six1-Eya2 blk: 8; D2 ag: -4.3; PINK1 modulator: -0.7%; TRPML1 inh: -2; TRPML1 ag: 0.7; D2 PAM: 5

More compounds follow:
item	SMILES	Six1-Eya2 blk	D2 ag	PINK1 modulator	TRPML1 inh	TRPML1 ag	D2 PAM
13	CCc1ccccc1NC(=O)CSc1n[nH]c(-c2cccnc2)n1	-3	3.9	-1.8%	-3	-0.4	-6
14	O=S(=O)(c1ccc(SCc2ccc(Br)cc2)nc1)N1CCCCC1	14	1.0	?	24	0.8	17
15	Cc1ccnc(SCC(=O)Nc2sc3c(c2C#N)CCCC3)n1	-8	4.1	-0.2%	15	1.1	-5
16	COCCn1c(SCC(=O)N2CC(=O)Nc3ccccc32)nc2ccccc21	3	-0.5	-0.4%	-2	-0.4	-6
17	COc1cc(OC)c(NC(=O)CCc2c(C)nc3cc(-c4ccccc4OC)nn3c2C)cc1Cl	.	.	3.6%	4	0.6	.
18	CCn1cc(C(=O)N2CCn3c(nc4ccccc43)C2)c(=O)c2ccc(C)nc21	1	-0.2	1.6%	5	0.0	0
19	COc1ccc(C2c3cc(OC)c(OC)cc3CCN2C2CC(=O)N(c3ccccc3)C2=O)cc1OC (stereo not given)	-6	-1.8	7.1%[38.3 µM]	13	1.2	-10
20	CC(C)n1cc(C(=O)N2CCCC(Nc3ccc(F)c(F)c3)C2)cn1 (stereo not given)	13	-3.7	-1.9%	-8	-0.5	-16
21	CCOc1ccc(CCNc2ccc3nnc(-c4ccccc4)n3n2)cc1OCC	-72*	-30	2.8%	14	-0.3	2
22	CC1CN(C(=O)CSc2ncnc3sccc23)CC(C)O1 (stereo not given)	3	-1.8	-1.2%	1	-0.3	-12
23	COCc1[nH]nc2c1C(c1cccc(OC)c1)C(C#N)=C(N)O2 (stereo not given)	-1	-2.8	3.6%[38.3 µM]	24	-0.5	-10
24	O=C(c1ccccc1)C1C(c2ccccc2)C1[N+](=O)[O-] (stereo not given)	9	1.3	2.2%	-23	1.2	0
25	CCC(=O)N1CN(S(=O)(=O)c2ccc(C)cc2)CC1C (stereo not given)	0	-0.5	1.5%	-14	0.6	-3
26	CCN(CC)CCN(C(=O)/C=C/c1cccs1)c1nc2ccc(F)cc2s1	-3	-0.2	11%	0	1.5	-17
27	CN(Cc1cnn(C)c1)C(=O)C1CCC(=O)N(Cc2ccc(Cl)cc2)C1 (stereo not given)	7	-2.6	-0.4%	19	1.6	-3
28	COc1cccc(NC(=S)Nc2ccc(F)cc2)c1	-8	1.9	0.7%	-2	0.1	-3
29	CCOc1ccccc1C(=O)NCC(=O)N1CCC(C)CC1	8	1.5	0.4%	7	0.6	-23
30	COc1ccc(Cn2c(C(=O)O)c(CNCc3ccco3)c3ccc(OC)cc32)cc1	.	.	-0.7%	-11	1.0	.
31	CCOC(=O)CSc1cc(C(F)(F)F)nc(-c2ccccn2)n1	5	-1.2	-3.3%	-5	-1.3	-7
32	CCCCCOc1ccc(CSC2=NCCN2)cc1[N+](=O)[O-]	10	-18	8.1%	-6	1.3	-22
33	CC(C)C12CN3CC(C(C)C)(CN(C1)C31C(=O)Nc3ccccc31)C2=O (stereo not given)	-2	-2.8	1.7%	-12	3.8	-4
34	CC(C)OCCCn1c(SC(C)C(=O)NCC2CCCO2)nc2cc(Cl)ccc2c1=O (stereo not given)	1	0.9	2.4%	-5	0.3	-9
35	COc1ccc(C(=O)CCC(=O)Nc2ccc(F)cc2F)cc1	.	.	-1.5%	-10	-0.5	.
36	Cc1ccc(C(=O)OCC(=O)Nc2ccccc2N2CCOCC2)cc1	3	-4.8	-0.4%	8	2.1	-7
37	Cc1ccc(-c2nc3c(c(=O)[nH]c(=O)n3Cc3ccccc3)n2C)o1	-15	1.9	1.1%	1	3.8	25
38	COc1ccc(/C=C(\NC(=O)c2ccc(OC)cc2)C(=O)Nc2ccccc2C(=O)O)cc1	-12	-3.2	3.9%	-8	-0.5	-11
39	COc1ccccc1N1CCN(C(=O)c2ccc(-c3ccccc3)cc2)CC1	-5	8.4	1.2%	3	1.5	-6
40	CCc1cccc(C)c1Nc1c(-c2ccc(N(C)C)cc2)nc2ncccn12	.	.	0.1%	17	17	.
41	Nc1cccn2c(-c3ccc(Cl)c(Cl)c3)cnc12	-2	-8.3	1.3%	38	-0.5	-5
42	CCOC(=O)N1CCN(C(=O)c2nn(C)c3c2CSc2ccccc2-3)CC1	4	-2.7	1.0%	29	1.0	-5
43	O=C(NCCCN1CCOCC1)c1ccc2c(c1)N(Cc1c(F)cccc1Cl)C(=O)c1ccccc1S2	-8	-4.0	-0.6%	-2	0.6	-14
44	O=C(Nc1cccc2[nH]ncc12)c1ccc(F)cc1	6	0.8	-2.9%	-15	0.0	1
45	CC1CCc2nn(CC(=O)NC3CCCC(C)C3C)cc2C1 (stereo not given)	9	-4.8	4.4%	-5	1.1	-3
46	C/C(=N\Nc1ncc(Cl)cc1Cl)c1ccc2c(c1)OCO2	0	-5.0	5.0%	0	2.9	-2
47	C=CCN(c1ccccc1C(=O)O)S(=O)(=O)c1ccc(NC(=O)OC)cc1	9	0.2	0.1%	13	-0.1	-5
48	COCCNCc1cc(C)n(-c2cc(S(=O)(=O)N3CCOCC3)ccc2N2CCCC2)c1C	-4	-3.2	-1.0%	-15	1.2	-16
49	O=C(O)COc1ccccc1/C=N/NC(=O)c1cc(-c2ccc(F)cc2)nc2ccccc12	-72*	-2.9	1.4%	-9	-0.5	6
50	CCOC(=O)CN1C(=O)C(=O)N(Cc2c(F)cccc2Cl)C1=O	3	-2.7	0.4%	-6	-0.4	-4
51	COc1ccc(C2N=C(c3ccccc3)C(C)(C)N2O)cc1OC (stereo not given)	-1	-6.4	-2.0%[38.3 µM]	-16	2.1	-23
52	Cc1cc(NC(=O)C2CCCN(S(=O)(=O)c3cnc[nH]3)C2)ccc1Br (stereo not given)	0	-1.2	4.1%	-1	-0.2	2
53	Cc1csc2nc(CNS(=O)(=O)c3ccc(-c4ccccc4)cc3)cn12	-8	6.0	-0.8%	4	1.9	-6
54	COc1ccc(N2CCN(C(=O)c3cccc(Cn4cc(Cl)cn4)c3)CC2)cc1	-9	0.9	.	14	1.1	-13
55	Cc1cc(C)n2nc(C(=O)OCC(=O)NC3CCS(=O)(=O)C3)nc2n1 (stereo not given)	5	-2.3	2.8%	-5	0.4	3
56	CCOC(=O)c1ccccc1-n1c(C)cc(C2N=C(N)Nc3nc4ccccc4n32)c1C (stereo not given)	-16	-3.2	3.2%[38.3 µM]	-24	-0.6	-20
57	COC(=O)c1c(NC(=O)Cc2cccs2)sc(C(=O)NC2CCCCC2)c1C	1	-1.8	?	33	0.1	-10
58	CC(C)(C)C1CCC(C(=O)OCC(=O)N2CCOCC2)CC1 (stereo not given)	2	-0.6	0.5%	21	0.1	-2
59	Cc1ccc(NS(=O)(=O)c2ccc3oc(=O)ccc3c2)cc1Cl	-5	6.9	-0.4%	.	.	-42
60	COc1ccccc1NC(=O)Cn1cnc2c(cnn2-c2ccccc2)c1=O	-2	-0.5	-1.3%	6	-0.4	8
61	N#Cc1cncc(-c2ccc3c(c2)OCCOCCOCCOCCOCCO3)n1	4	-7.7	-0.6%	46	-0.4	-6

Entries above printed as active in Six1-Eya2 blk.
| no. | SMILES | Six1-Eya2 blk | D2 ag | PINK1 modulator | TRPML1 inh | D2 PAM |
| --- | --- | --- | --- | --- | --- | --- |
| 21 | CCOc1ccc(CCNc2ccc3nnc(-c4ccccc4)n3n2)cc1OCC | -72* | -30 | 2.8% | 14 | 2 |
| 49 | O=C(O)COc1ccccc1/C=N/NC(=O)c1cc(-c2ccc(F)cc2)nc2ccccc12 | -72* | -2.9 | 1.4% | -9 | 6 |

Compound activity as filed in PubChem.
